Hsc70 ATP site: small molecules displacing fluorescent ligand from Hsc70 – biochemical, fluorescence polarization, primary screen (AID 568). Hsc70 fluorescence polarization, probe displacement; higher % means a stronger effect; strong numbers were not always called active. 83,000 tested, under 10 active. displacement, % at 20 µM; hits with a dose series show IC50 in µM;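 active means displacement above 50% without optical interference and an IC50 on retest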;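 further: ATPase domain with a fluorescein-tagged ATP probe; 0% = vehicle and 100% = excess ADP; read after one hour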
WNV protease inh: inhibitors of West Nile virus NS2B-NS3 protease | AID 577 | z-score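 (tested at a level between 10 and 100 µM)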 | actives 0.18% (n = 65,000) | P06935 | WNV NS2B-NS3 protease, fluorogenic substrate Ex360/Em465; active compounds read low;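 active means z-score at -3 or under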;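 further: score is relative to mean and spread of the compound wells of a plate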
Target sequence (P06935 1371-1501 limits assumed): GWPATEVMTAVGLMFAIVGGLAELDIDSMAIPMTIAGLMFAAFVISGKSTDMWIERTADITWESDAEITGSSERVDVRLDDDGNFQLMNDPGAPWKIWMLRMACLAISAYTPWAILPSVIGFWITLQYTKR
Target sequence (P06935 1502-1679 limits assumed): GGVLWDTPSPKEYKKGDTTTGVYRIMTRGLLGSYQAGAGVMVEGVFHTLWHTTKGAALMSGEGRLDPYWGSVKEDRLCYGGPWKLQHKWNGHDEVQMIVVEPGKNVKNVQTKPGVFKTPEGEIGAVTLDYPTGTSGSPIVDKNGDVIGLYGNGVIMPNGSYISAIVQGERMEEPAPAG
MT1-MMP promoter: inhibitors of MT1-MMP promoter transcription, cell-based, luciferase reporter, luminescence (AID 618); MT1-MMP promoter luciferase reporter cells, luminescence; calls from a first round at 10 µM; hits with a dose series show EC50 in µM; actives 0.62% (n = 87,000);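 active means over half of the reporter light lost at 10 µM or EC50 under 50 µM; inactive means the rest and hits that failed the dose series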;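 further: actives suppress MT1-MMP promoter-driven transcription so potencies describe inhibitors; HT1080 fibrosarcoma cells; overnight exposure; toxic or luciferase-blocking compounds were not removed from the actives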
Numbers without * were called inactive; i = inactive; nt = not tested or not shown.

Start of the data: the first 5 records (preview)
cpd	mol	Hsc70 ATP site	WNV protease inh	MT1-MMP promoter
1	CCCCN(Cc1cc2cc(OC)ccc2[nH]c1=O)C(=O)c1ccccn1	-3.1%	1.74	i
2	CCN(CC(=O)NCc1cccs1)c1ccc(S(=O)(=O)N2CCOCC2)cn1	7.2%	-0.96	i
3	CCc1[nH]c(=O)c(C#N)c2c1COC(C)(C)C2	3.6%	nt	i
4	Cc1cc(C(=O)CN2C(=O)NC3(CCCc4ccccc43)C2=O)c(C)n1C (stereo not given)	-0.4%	nt	i
5	COc1cccc(OCC(=O)NC2CCCCC2)c1	2.7%	0.75	i

Main list, from the first entry:
cpd	mol	Hsc70 ATP site	WNV protease inh	MT1-MMP promoter
1	CCCCN(Cc1cc2cc(OC)ccc2[nH]c1=O)C(=O)c1ccccn1	-3.1%	1.74	i
2	CCN(CC(=O)NCc1cccs1)c1ccc(S(=O)(=O)N2CCOCC2)cn1	7.2%	-0.96	i
3	CCc1[nH]c(=O)c(C#N)c2c1COC(C)(C)C2	3.6%	nt	i
4	Cc1cc(C(=O)CN2C(=O)NC3(CCCc4ccccc43)C2=O)c(C)n1C (stereo not given)	-0.4%	nt	i
5	COc1cccc(OCC(=O)NC2CCCCC2)c1	2.7%	0.75	i
6	CC(C)C[C@H](NC(=O)OC(C)(C)C)C(=O)N/N=C/c1ccc2nccnc2c1	2.4%	nt	i
7	CC(C)Cn1c(SCc2nnc(-c3cccs3)o2)nc(O)cc1=O	4.4%	0.13	i
8	O=C(CSc1nc2nc(-c3cccs3)cc(C(F)(F)F)c2c(=O)[nH]1)NCc1ccco1	-2.0%	0.83	i
9	CCc1c(C)c(C#N)c2nc3ccccc3n2c1N1CCN(c2cc(C)ccn2)CC1	1.8%	nt	i
10	CCOC(=O)C1=C2N(C)c3ccccc3N2CCC1=O	-3.0%	1.48	i
11	Cc1cccc(OCc2nnc(SCC(=O)N3CCN(c4ccccc4)CC3)o2)c1C	4.9%	nt	i
12	COc1c(S(=O)(=O)N2CCCC2)ccc(Cl)c1Cl	10.7%	1.12	i
13	O=C(CCCCn1c(=O)[nH]c2ccccc2c1=O)NCCC1=CCCCC1	1.7%	1.62	i
14	Cc1ccc2nsnc2c1S(=O)(=O)N1CCCC1	-1.0%	0.41	i
15	Cc1c(C(=O)NCCCN2CCCC2=O)oc2ccc(S(=O)(=O)N3CCOCC3)cc12	-3.2%	0.59	i
16	CCc1nc(N)c(C#N)c(-c2cccn2C)c1C	0.0%	-6.79*	i
17	Cc1cc(C(C)(C)C)nc2[nH]n(-c3ccccc3)c(=O)c12	-0.9%	nt	i
18	COc1ccc(S(=O)(=O)Cc2ccc(C(=O)N3CCN(c4ncccn4)CC3)o2)cc1	-3.2%	-0.83	i
19	O=C(COc1ccc2c(c1)CCC2)N1CCc2ccccc21	-5.8%	2.26	i
20	O=C(C1CCCN(S(=O)(=O)c2cccs2)C1)N1CCC(N2CCCCC2)CC1 (stereo not given)	-0.4%	0.68	i
21	CCn1c2ccccc2c2nnc(SCN3C(=O)c4ccccc4C3=O)nc21	4.1%	-0.77	i
22	Cc1cccc(N2C(=O)CC(Sc3nnc(C)s3)C2=O)c1 (stereo not given)	1.3%	nt	i
23	COc1ccc(OC)c(C2C(C(C)=O)=C(O)C(=O)N2CCC(=O)O)c1 (stereo not given)	3.1%	0.55	i
24	CC(C)(C)N1C(=O)c2ccc(C(=O)O)cc2C1=O	4.5%	-0.62	i
25	O=C1c2ccccc2CC1(Cc1ccccc1)Cc1ccccc1	3.5%	nt	i
26	Cc1cc(C(=O)OCC(=O)Nc2ccc(F)cc2)c(C)o1	0.1%	0.18	i
27	O=C(CCSc1ccccc1)NCC1CCCO1 (stereo not given)	-1.5%	1	i
28	COc1ccc(OC)c(N(CC(=O)NCc2ccccn2)S(C)(=O)=O)c1	0.1%	-0.27	i
29	O=C(c1cc(C2CC2)on1)N1CCN(c2ccc(F)cc2)CC1	3.0%	0.07	i
30	Cc1ccc2cc(-c3noc(C4CCCCC4)n3)c(=O)[nH]c2c1	5.9%	-0.75	i
31	O=S(=O)(c1cccc(-n2cnnn2)c1)N1CCOCC1	1.8%	0.22	i
32	COc1cc(C)c2occ(/C(C)=N\O)c2c1	0.6%	-0.89	i
33	COCCn1nnnc1C(c1ccc(OC)c(OC)c1)N1CCc2ccccc21 (stereo not given)	1.2%	-0.05	i
34	O=C(CN1C(=O)C2(OCCO2)c2ccccc21)c1ccc(Br)cc1	3.0%	-0.14	i
35	COc1ccc(NC2CC(=O)N(c3cccc(C)c3)C2=O)cc1 (stereo not given)	-2.0%	-0.08	i
36	O=C(CSc1n[nH]c(-c2ccc(S(=O)(=O)N3CCCCC3)cc2)n1)Nc1nccs1	5.1%	0.4	i
37	CCOCC(=O)Nc1cc(OC)c(Cl)cc1OC	1.1%	0.65	i
38	CCOC(=O)Cn1nnnc1CN(Cc1ccc(OC)cc1)Cc1cc2cc(CC)ccc2[nH]c1=O	2.8%	-0.83	i
39	NS(=O)(=O)c1ccc(NC(=O)CSC2=NC(=O)C(c3ccccc3)C(=O)N2)cc1 (stereo not given)	6.2%	-0.54	i
40	CC1Cc2nc(SCC(=O)N3CCOCC3)n(-c3ccccc3)c(=O)c2S1 (stereo not given)	-4.8%	-0.24	i
41	CC(Sc1ccccn1)C(=O)Nc1ccc(S(N)(=O)=O)cc1 (stereo not given)	5.2%	nt	i
42	O=C1C(=O)N(CCN2CCOCC2)C(c2ccccn2)/C1=C(/O)c1ccccc1 (stereo not given)	-6.7%	-0.6	i
43	CCCCCOC(=O)Cn1c(=O)oc2ccccc21	-5.7%	-1.94	i
44	CCC(C)(C)n1c(=O)[nH]c2c(c1=O)CCC2	-5.3%	-0.13	i
45	O=C(CC1(O)C(=O)Nc2ccc(Br)cc21)c1ccc2c(c1)OCO2 (stereo not given)	0.9%	0.28	i
46	O=C(NC1CCS(=O)(=O)C1)C12CC3CC(CC(C3)C1)C2 (stereo not given)	-0.5%	-0.43	i
47	Cc1ccc2c(c1)N(CCC(=O)NCc1cccnc1)C(=O)CO2	-2.8%	-1.02	i
48	Cc1cccc(NC(=O)N2CCN(Cc3ccccc3)CC2)c1	-4.1%	nt	i
49	CCOCCn1c(SCCc2ccccc2)nc2c1c(=O)[nH]c(=O)n2C	-1.9%	-1.34	i
50	CCC(C)N=C1SCC(C)(/C=N/O)S1 (stereo not given)	7.7%	0.57	i
51	c1cncc(-c2nn3cnnc3s2)c1	2.8%	-0.64	i
52	Cc1ccc(-n2nnnc2SCC(=O)Nc2ccccc2N2CCCCC2)cc1C	6.7%	-1.05	i
53	CCC(=O)N1CCN=C1SCc1ccc(Cl)cc1	-0.9%	0.99	i
54	CC(NC(=O)c1cc(-c2ccc3c(c2)OCO3)nc2ccccc12)C(C)(C)C (stereo not given)	-2.2%	nt	i
55	CC(=NCCCn1ccnc1)C1=C(O)c2ccccc2C1=O	-2.6%	-0.55	i
56	CC1(C)C(=O)OC(c2cc(Br)ccc2O)C(C)(C)C1=O (stereo not given)	1.2%	-0.21	i
57	CCn1c(=O)c2cc(C(=O)N3CCOCC3)sc2c2ccccc21	4.7%	-1.03	i
58	COc1ccccc1C(c1nnnn1C1CCCC1)N1CCN2CCCC2C1 (stereo not given)	3.1%	0.84	i
59	Cc1ccc(NS(=O)(=O)c2cc(C(=O)N3CCOCC3)ccc2C)cc1C	1.8%	0.11	i
60	COc1ccc(CN(Cc2ccccn2)C(=O)CN2C(=O)COc3ccccc32)cc1	9.2%	1.29	i

Whole records from above. Values in the order: Hsc70 ATP site	WNV protease inh	MT1-MMP promoter
Cc1ccc(NS(=O)(=O)c2cc(C(=O)N3CCOCC3)ccc2C)cc1C reads 1.8%	0.11	i
Cc1ccc(-n2nnnc2SCC(=O)Nc2ccccc2N2CCCCC2)cc1C reads 6.7%	-1.05	i

(further entries)
cpd	mol	Hsc70 ATP site	WNV protease inh	MT1-MMP promoter
61	Cc1ccc(C)c(S(=O)(=O)C(C#N)c2nc3ccccc3nc2N2CCOCC2)c1 (stereo not given)	3.0%	0.38	i
62	Cc1occc1C(=O)Nc1ccc2c(c1)CCC2	-2.7%	2.79	i
63	Cc1cc(C)n2nc(Cc3ccccc3)nc2n1	3.9%	0.74	i
64	COC(=O)c1ccc2c(c1)NC(=O)C1CCCN21 (stereo not given)	-3.8%	-0.63	i
65	Cc1ccc(S(=O)(=O)N2c3ccc(S(N)(=O)=O)cc3CC2C)cc1 (stereo not given)	0.9%	-0.45	i
66	COc1ccc(-c2ccc(=O)n(CC(=O)N3CCN(c4ccccc4OC)CC3)n2)cc1	7.1%	1	i
67	Cc1ccc(SCc2nc(-c3ccncc3)no2)cc1	-1.0%	0.5	i
68	CCOCCCNC(=O)C1c2ccccc2C(=O)N2CCc3ccccc3C12 (stereo not given)	3.6%	-0.85	i
69	CCSc1nnc(NC(=O)C(CC)(C(F)(F)F)C(F)(F)F)s1	-6.8%	-0.26	i
70	CCOc1c(OC)cccc1C1CC(=O)Nc2cc3c(cc21)OCCO3 (stereo not given)	1.1%	0.47	i
71	COc1ccc(CN(Cc2ccncc2)C(=O)CCC(=O)O)cc1	-2.8%	0.8	i
72	O=C1CCCN1CN(C(=O)c1ccc2c(c1)OCO2)c1ccc(F)cc1	-2.0%	-1.47	i
73	Cn1c(O)c(C=NCC2CCNCC2)c(=O)n(C)c1=O	1.1%	nt	i
74	COc1ccc(Cc2nnn(CC(=O)O)n2)cc1	-3.7%	-0.57	i
75	Cc1ccc(C)c(Cn2c(C(C)O)nc3ccccc32)c1 (stereo not given)	-4.1%	0.26	i
76	Cc1ccc(S(=O)(=O)NC(=O)NN2CCCCCC2)cc1	3.9%	0.46	i
77	O=C(NCC1COc2ccccc2O1)C1CCCN(S(=O)(=O)c2cccc3nsnc23)C1 (stereo not given)	-1.4%	-2.87	i
78	O=C(Cn1cnc2c(nnn2-c2ccccc2)c1=O)NCC1CCCO1 (stereo not given)	-0.8%	0.9	i
79	COc1ccc(C2CC(c3ccccc3)Nc3nc(NC(=O)c4cccs4)nn32)cc1 (stereo not given)	4.2%	-0.42	i
80	COc1ccc(-c2noc(-c3ccccc3C(=O)Nc3cccc(OC)c3)n2)cc1	-8.6%	1.65	i
81	CSCCC(C(=O)NC1=NCCS1)N1C(=O)c2ccccc2C1=O (stereo not given)	1.3%	nt	i
82	COc1ccc(CN2CN(C(C)C)CSC2=S)cc1	2.6%	1.71	i
83	CCOC(=O)CSc1nnc(Cc2ccccc2)n1Cc1ccco1	-2.8%	-0.55	i
84	O=C(N/C(=N\O)c1ccccc1)Nc1ccc(Cl)cc1	5.4%	-0.31	i
85	COC(=O)[C@H](Cc1ccccc1)NC(=O)N1CCCCC1C (stereo not given in full)	3.3%	1.16	i
86	CCN(CC)S(=O)(=O)c1ccc(NC(=O)CN(c2cccc(C)c2)S(C)(=O)=O)cc1	-1.6%	nt	i
87	COc1ccccc1CNC(=O)CCNS(=O)(=O)c1cccc2nsnc12	4.4%	nt	i
88	Cc1ccccc1NC(=O)Cn1nnc(-c2ccc(N3CCOCC3)cc2)n1	-2.9%	0.57	i
89	O=C(O)Cn1nnn(-c2ccccc2)c1=S	5.9%	-1.38	i
90	Cc1cc(N=Cc2cc(Br)ccc2O)no1	-4.1%	0.63	i
91	CC(C)C(NC(=O)C1CCCCC1)C(=O)NC1CCN(Cc2ccccc2)CC1 (stereo not given)	-7.4%	0.04	i
92	Cc1ccccc1C(=O)Nc1nc2n(n1)C(c1ccccc1)CC(=O)N2 (stereo not given)	3.6%	nt	i
93	O=S(=O)(NCCSc1ccccc1)c1cccs1	3.1%	-0.7	i
94	CSc1nnc([C@H](C)NC(=O)OC(C)(C)C)o1	3.3%	0.67	i
95	Cc1c(NC(=O)CN2CCCc3ccccc32)c(=O)n(-c2ccccc2)n1C	-1.9%	-0.17	i
96	COc1ccc(-n2c(SCC(=O)N3CCCCC3)nc(O)cc2=O)cc1	-0.5%	-0.92	i
97	CC(C)N(CCNC(=O)C1CCC(=O)N1Cc1ccc(F)cc1)Cc1ccccc1 (stereo not given)	6.2%	-0.56	i
98	Cn1c(SCC(=O)NC2CCCCC2)nnc1-c1cc2ccccc2o1	1.6%	nt	i
99	CN(C)S(=O)(=O)c1ccc(C(=O)NCCOc2ccccc2)cc1	0.1%	-0.27	i
100	Cc1cc[n+](-c2nc([O-])n(-c3ccccc3)c2C=O)cc1	-2.6%	nt	i
101	OC(COc1ccccc1Cl)CN1CCN(CC(O)COc2ccccc2Cl)CC1 (stereo not given)	5.4%	-0.54	i
102	COc1ccccc1NC(=O)C(CC=C(Cl)Cl)C(C)=O (stereo not given)	-1.5%	nt	i
103	CCS(=O)(=O)N1CCCC(C(=O)NCCc2ccc(OC)c(OC)c2)C1 (stereo not given)	-0.1%	-0.52	i
104	Cc1nc2c(=O)n(C)c(=O)[nH]c2n1Cc1ccccc1	1.4%	-0.16	i
105	CCN(CC)S(=O)(=O)c1cccc(C(=O)NC(C(=O)NC2=NCCS2)C(C)C)c1 (stereo not given)	0.0%	0.28	i

High-throughput results from PubChem BioAssay.

A portion of the library. The share of hits here may be higher or lower than overall.
